Screening data from PubChem BioAssay.
FPRL1 binder: binds the human formylpeptide receptor-like-1 FPRL1; FPRL1-expressing cells, fluorescent ligand binding inhibition, flow cytometry; AID 441; 24,000 tested, 0.3% active; inhibition, %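 (tested at 6.7 µM)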;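 also: 0% = buffer alone and 100% = receptor blocker peptide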
Target sequence (P25090 whole entry, looked up): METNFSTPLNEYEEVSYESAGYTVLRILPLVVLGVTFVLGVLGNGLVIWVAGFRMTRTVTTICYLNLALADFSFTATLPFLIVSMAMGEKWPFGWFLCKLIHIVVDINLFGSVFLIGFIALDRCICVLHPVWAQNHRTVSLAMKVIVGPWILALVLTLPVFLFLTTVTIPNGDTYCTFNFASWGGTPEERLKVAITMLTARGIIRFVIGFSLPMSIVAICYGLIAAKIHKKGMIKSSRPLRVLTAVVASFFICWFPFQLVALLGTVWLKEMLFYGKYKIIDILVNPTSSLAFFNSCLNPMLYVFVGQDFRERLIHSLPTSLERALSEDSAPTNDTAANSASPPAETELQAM
VCAM-1 down: inhibitors of TNFa-induced VCAM-1 surface display, cell-based, plate reader, pooled HUVEC, TNFa stimulus (AID 454). inhibition, % at 5 µM. 10,000 tested, 0.2% active. HUVEC TNFa-induced VCAM-1 surface immunofluorescence, plate reader; numbers were filed only for top-ranked candidate wells;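 active = compound among top-ranked inhibitors of TNF-induced VCAM-1 adhesion protein staining, with the hit upheld by image or statistical review; inactive = the rest, including hits rejected on review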;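 also: 0% = TNFa with vehicle and 100% = cells without TNFa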
VCAM-1 down imaging: suppression of endothelial VCAM-1 upregulation – imaging, high-content imaging, pooled HUVEC, TNFa stimulus (AID 456); HUVEC TNFa-induced VCAM-1 surface expression, immunofluorescence imaging; numbers were filed only for top-ranked candidate wells; inhibition, % at 5 µM, or IC50 in µM where a hit was titrated; 10,000 tested, 0.2% active;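 active = top tenth filtered wells with inhibition above zero that passed visual or statistical confirmation; inactive = the rest, including hits rejected on review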;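 also: 0% = stimulated vehicle wells and 100% = unstimulated cells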
FPR ligand: ligands of human FPR, also counter-screen for FPRL1 ligands. P21462. FPR-expressing cells, fluorescent ligand binding, flow cytometry. inhibition, %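 (tested at 6.7 µM)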. 24,000 tested, 0.74% active. AID 440;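 also: 0% = buffer wells and 100% = receptor blocker peptide wells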
Target sequence (P21462 whole entry, looked up): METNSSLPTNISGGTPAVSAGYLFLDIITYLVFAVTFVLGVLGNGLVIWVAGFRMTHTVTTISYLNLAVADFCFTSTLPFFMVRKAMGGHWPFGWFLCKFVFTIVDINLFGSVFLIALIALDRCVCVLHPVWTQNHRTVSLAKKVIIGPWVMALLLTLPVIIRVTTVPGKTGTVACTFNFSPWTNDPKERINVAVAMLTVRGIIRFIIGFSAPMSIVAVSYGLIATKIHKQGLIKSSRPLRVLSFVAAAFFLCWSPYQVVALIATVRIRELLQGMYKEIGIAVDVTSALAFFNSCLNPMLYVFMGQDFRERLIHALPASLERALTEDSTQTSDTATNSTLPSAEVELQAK
VCAM-1 augmentation: boosters of cytokine-driven VCAM-1 levels – imaging, high-content imaging, pooled HUVEC, TNFa stimulus (AID 457) | Pooled HUVEC, TNFa-induced VCAM-1 immunofluorescence imaging; hits of this screen are not shown here | calls only | 10,000 tested, 0.2% active;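 active = a top-ranked rise in VCAM-1 staining upheld on image or statistical review; inactive = the rest, including candidates rejected on review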;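 also: compounds tested at 5 µM in the well; cells exposed to compound for 24 hours before fixing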
* marks the source's active call; other numbers are inactive results; i = inactive; x = not tested or not shown.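 The calls were made as follows, unless noted: active = mean above 30%; inconclusive = self-fluorescent; inactive = the rest.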 The list is partial, so the mix of outcomes need not match the whole.

SMILES	FPRL1 binder	VCAM-1 down	VCAM-1 down imaging	FPR ligand	VCAM-1 augmentation
Cc1ccc2cc(C(c3nnnn3C3CCCC3)N3CCN(c4ccc(F)cc4)CC3)c(=O)[nH]c2c1 (stereo unspecified)	-1.4	i	i	9.6	i
Oc1ccc2[nH]cnc2c1CN1CCCCC1	-1.6	i	i	-3.3	i
COc1ccc(C)cc1NC(=O)CN1CCN(S(=O)(=O)c2ccc(Cl)cc2)CC1	-6.8	i	i	1.3	i
CSc1sc(C)cc1C1C(C#N)=C(N)N(c2cccnc2)C2=C1C(=O)CC(C)(C)C2 (stereo unspecified)	-6.1	x	x	26.3	x
Cc1cc(C)c2c(N)c(C(=O)c3ccccc3)oc2n1	1.5	i	i	10.6	i
CC1=C(C(=O)NC2CCC(C)CC2)C2(CCC(C)CC2)OC1=O (stereo unspecified)	0.2	i	i	3.0	i
O=C(NCCCN1CCCC1)c1cccc(N2CCCC2=O)c1	-0.6	x	x	-0.5	x
Cc1nn(C)c(C)c1NC(=O)CCSc1nc(-c2ccco2)cc(C(F)(F)F)n1	11.2	i	i	9.9	i
CC(NC(=O)CN1CCN(Cc2ccc(Cl)cc2)C1=O)c1ccc2c(c1)OCCO2 (stereo unspecified)	-3.8	x	x	3.8	x
O=C(CN1CCOc2ccccc21)NCc1cccs1	3.2	x	x	1.3	x
Cc1c(C(=O)N2CCN(Cc3ccccc3)CC2)sc2ncnc(N3CCOCC3)c12	-6.2	x	x	1.3	x
O=C(/C=N/O)Nc1cccnc1	3.4	i	i	-3.9	i
COc1ccccc1C(=O)NCCc1nc2ccccc2n1C	2.6	i	i	-5.2	i
Cc1ccc(S(=O)(=O)c2nc(-c3ccco3)oc2SCC(=O)NCC2CCCO2)cc1 (stereo unspecified)	-9.9	i	i	-15.7	i
COc1cc2[nH]c(=O)c(C(=O)NCCCN3CCCCC3)c(O)c2cc1OC	-4.3	i	i	1.5	i
CCCNC(=O)C(Cc1ccccc1)NS(=O)(=O)c1ccc2c(c1)CCC(=O)N2 (stereo unspecified)	9.6	x	x	-2.8	x
CCN(CC)CCNC(=O)c1ccc(N2CCCCC2)c(NS(=O)(=O)c2ccc(C)cc2)c1	1.6	74.6	i	-3.4	i
CCN1C(=O)/C(=C2\C=Cc3ccccc3N2CC)OC1=S	-8.8	i	i	3.0	i
O=S(=O)(Nn1cnnc1)c1ccccc1Cl	-1.4	i	i	-4.3	i
CCN(CCCNC(=O)c1cn(CC)c2ccc(S(=O)(=O)N(C)C)cc2c1=O)c1cccc(C)c1	-1.4	i	i	-1.9	i
COc1cc(CC(=O)Nc2ncc(C)s2)cc(OC)c1OC	-3.4	i	i	-0.5	i
O=C(Cc1ccc(-n2c(=O)[nH]c3ccccc3c2=O)cc1)N1CCN(c2ccccc2)CC1	-1.2	x	x	-1.0	x
Cn1c(Cn2c(=O)sc3ccccc32)nnc1SCc1ccccc1	4.3	x	x	-6.6	x
COCCCNC(=O)C1C2C=CC3(CN(Cc4ccc(C)cc4)C(=O)C13)O2 (stereo unspecified)	4.5	x	x	-0.8	x
CCOC(=O)N1CCC(Nc2c(NCCN3CCN(Cc4ccccc4)CC3)c(=O)c2=O)CC1	13.4	x	x	2.7	x
Cc1nc2nc(C)c(CCC(=O)N3CCc4ccccc43)c(C)n2n1	-2.8	x	x	-6.6	x
CCC(=O)N1c2ccc(S(=O)(=O)CCC(=O)Nc3nccs3)cc2CC1C (stereo unspecified)	-2.3	x	x	-5.1	x
CC(C)(C)c1ccc(OCC(=O)O)cc1	-4.6	i	i	-3.5	i
CC1(C)CC(=O)C2=C(C1)N(CC1CCCO1)C(=O)C2(O)C(F)(F)F (stereo unspecified)	-1.0	i	i	-10.4	i
COC(=O)c1cccc(NC(=O)CSc2nnc(COc3ccc(C#N)cc3)n2-c2ccccc2)c1	2.4	i	i	-4.8	i
CCOc1ccccc1C1CC(c2ccc(Br)cc2)Nc2nc(N)nn21 (stereo unspecified)	-1.5	i	i	-5.3	i
CCOCCCN1CC(C(=O)NCCc2ccc(C)cc2)CC1=O (stereo unspecified)	-0.4	x	x	0.4	x
Cc1ccc(CN2C(=O)CCC2C(=O)NC(C)C)cc1 (stereo unspecified)	-0.7	x	x	2.4	x
O=C(NCc1ccc(F)cc1)C1CCN(S(=O)(=O)N2CCCCC2)CC1	1.5	x	x	0.5	x
CCOC(=O)N1CCC(n2c(SCC(=O)Nc3nccs3)nc3ccsc3c2=O)CC1	7.9	x	x	-2.7	x
O=C(CSc1nnc(CNC(=O)c2cccs2)o1)NCc1ccc(F)cc1	4.2	x	x	0.6	x
c1n[nH]c(SCCCCSc2ncn[nH]2)n1	1.7	i	i	0.5	i
Cc1cccc(C(OC(=O)c2ccco2)C(=O)NCc2ccccc2)n1 (stereo unspecified)	-12.5	i	i	-7.0	i
Cc1ccccc1C1CC(c2ccc(F)cc2)Nc2nc(N)nn21 (stereo unspecified)	4.2	x	x	4.3	x
CCOC(=O)C1CCCN(C(=O)CN2C(=O)COc3ccc(C(C)(C)C)cc32)C1 (stereo unspecified)	3.5	x	x	0.5	x
Cc1noc(NS(=O)(=O)c2ccc(N3C(=O)c4ccccc4C3=O)cc2)c1C	-1.9	i	i	-0.2	i
O=C(CCCn1c(SCC(=O)NC2CCCC2)nc2ccccc2c1=O)NCC1CCCO1 (stereo unspecified)	-1.3	x	x	2.2	x
CN(C)C(=O)c1nnc(Cc2ccc(Cl)cc2)o1	-1.5	x	x	-1.5	x
COC(=O)c1c(-c2ccc(F)cc2)noc1N	4.3	i	i	0.1	i
CCOC(=O)C1(N(CC)CC)Sc2cc(C)ccc2NC1=O (stereo unspecified)	2.9	x	x	-3.6	x

Individual results from the entries so far.
Result of Cc1ccc(CN2C(=O)CCC2C(=O)NC(C)C)cc1 (stereo unspecified) under FPR ligand: 2.4
Result of CCOC(=O)N1CCC(n2c(SCC(=O)Nc3nccs3)nc3ccsc3c2=O)CC1 under FPRL1 binder: 7.9
Result of O=C(CCCn1c(SCC(=O)NC2CCCC2)nc2ccccc2c1=O)NCC1CCCO1 (stereo unspecified) under FPR ligand: 2.2

Next part.
SMILES	FPRL1 binder	VCAM-1 down	VCAM-1 down imaging	FPR ligand	VCAM-1 augmentation
Cc1ccc(NC(=O)CNS(=O)(=O)c2cccs2)cc1F	7.4	x	x	6.4	x
CCOC(=O)Cn1c(=O)n(Cc2ccco2)c(=O)c2ccc(C(=O)NCCc3ccccc3)cc21	-3.3	x	x	0.2	x
Cn1cccc1Cc1nnc(SCC(=O)Nc2ccc(F)cc2F)n1-c1ccc(F)cc1	-1.6	i	i	-1.7	i
CC(C)C(=O)Nc1ccc2c(c1)nc1n2CCSC1	-0.6	i	i	-2.0	i
COc1cccc(-c2cc(C(=O)NCc3ccc(Cl)cc3)no2)c1	-3.2	i	i	1.9	i
CCOC(=O)CC12CN3CN(C1)CC(CC(=O)OCC)(C3)C2=O	3.0	i	i	-3.7	i
CCOCCCNC(=O)CCNS(=O)(=O)c1ccc(C)cc1	3.2	i	i	-4.2	i
CCOC(=O)COc1ccc2c(c1)C(=O)CC(C)(C)O2	-0.1	x	x	3.5	x
CC(=O)Nc1ccc(S(=O)(=O)N(CC(=O)O)Cc2ccccc2)cc1	-1.1	i	i	-0.8	i
CCC(=O)Nc1c(C#N)c2nc3ccccc3nc2n1-c1ccc(C)cc1	-6.1	x	x	7.9	x
CCn1c(=O)cc(OCC(=O)NCc2ccco2)c2ccccc21	1.5	x	x	4.5	x
CNC(=O)CSc1nnc(-c2cc(C)cc(C)c2)o1	-12.2	i	i	-13.4	i
Cc1cnc(NC(=O)CSc2nnc(-c3ccccc3)n2Cc2ccccc2)s1	-1.6	i	i	-5.3	i
CCOc1ccc(-n2c(=O)cc(N3CCN(c4ccc(F)cc4)CC3)[nH]c2=O)cc1	-0.6	x	x	-1.3	x
O=C(NC(NC1CCS(=O)(=O)C1)C(=O)c1cccs1)c1ccccc1 (stereo unspecified)	-2.4	i	i	-6.1	i
Cc1ccc(S(=O)(=O)N2CC3CCC2C3)cc1 (stereo unspecified)	-6.3	x	x	-4.5	x
COc1cc2c(cc1OC)C(=NCCC(=O)O)NC(C)(C)C2	5.7	x	x	6.2	x
Cc1ccc2oc(=O)c3cnn(CC(=O)NC4CCCCC4C)c3c2c1 (stereo unspecified)	0.5	x	x	-0.4	x
O=C(CSc1nc2ccccc2o1)NCc1ccc2c(c1)OCO2	-4.6	x	x	-0.9	x
CN(c1ccc(Cl)cc1)c1cc(=O)n(C)c2ccccc12	-14.1	x	x	0.9	x
CCCN1CCN(CCCNC(=O)Cn2nc(-c3ccc(Cl)cc3)ccc2=O)CC1	-3.3	i	i	-6.9	i
CCOC(=O)c1cc(-c2ccc3c(c2)OCO3)nc2onc(C)c12	-1.2	i	i	-2.9	i
CC1(C)CC(=O)N(CC(=O)O)c2ccccc2S1(=O)=O	-9.7	x	x	-2.7	x
O=C(CCNC(=O)c1ccc(Br)o1)NCc1ccccn1	6.4	x	x	1.3	x
Cc1c(NC(=O)NCCN2C(=O)C3C4C=CC(C4)C3C2=O)c(=O)n(-c2ccccc2)n1C (stereo unspecified)	7.9	x	x	4.0	x
Cc1cccn2c(=O)c3cc(C(=O)N4COCC4(C)C)n(C)c3nc12	-2.8	x	x	-1.0	x
CCCC(=O)N(c1ccc2oc(=O)sc2c1)S(=O)(=O)c1cccs1	-1.3	x	x	8.6	x
NC(=O)Cn1c(=O)oc2ccccc21	-2.8	x	x	-1.0	x
O=C(CCCNS(=O)(=O)c1cccs1)N1CCN(c2cccc(Cl)c2)CC1	2.0	x	x	16.2	x
Cn1c(C(=O)NCc2cccnc2)cc2sc(Cl)cc21	7.3	x	x	-3.7	x

Entries of single compounds from above. Values in the order: FPRL1 binder | VCAM-1 down | VCAM-1 down imaging | FPR ligand | VCAM-1 augmentation
Record of `Cc1ccc2oc(=O)c3cnn(CC(=O)NC4CCCCC4C)c3c2c1` (stereo unspecified) → 0.5 | x | x | -0.4 | x
Record of `Cn1c(C(=O)NCc2cccnc2)cc2sc(Cl)cc21` → 7.3 | x | x | -3.7 | x

(further entries)
SMILES	FPRL1 binder	VCAM-1 down	VCAM-1 down imaging	FPR ligand	VCAM-1 augmentation
COc1ccccc1-c1c(C)nn2c(N3CCC4(CC3)OCCO4)cc(C)nc12	11.8	i	i	2.0	i
Cc1cc(=O)oc(C)c1C(=O)NCCCN1CCN(c2ccccc2F)CC1	-7.9	x	x	-6.7	x
COc1cc2c(C(=O)N3CCN(Cc4ccc5c(c4)OCO5)CC3)cn(C)c(=O)c2cc1OC	-2.8	x	x	-7.8	x
CCOC(=O)N1CCN(c2nc(-c3ccc(Cl)cc3)cs2)CC1	4.5	i	i	26.1	i
CCN1CCn2c3c(c4cc(Cl)ccc42)CCCC31 (stereo unspecified)	2.0	x	x	-6.3	x
O=C(O)c1cccc(Cn2cccn2)c1	-2.3	x	x	-0.9	x
COC(=O)c1ccccc1NC(=O)CCNC(=O)Cn1cnc2ccccc2c1=O	4.1	x	x	0.0	x
Cc1ccc(CCSCC(=O)O)cn1	1.2	i	i	1.7	i
S=c1[nH]ncn1/N=C/c1ccccc1	2.5	x	x	0.1	x
CC(C)CCN1C(=O)CCC1(C)C(=O)NC1CCCCCC1 (stereo unspecified)	-0.1	x	x	-1.5	x
CC(=O)N1CCN(S(=O)(=O)c2cccc(C(=O)Nc3ccc4c(c3)CCC4)c2)CC1	0.9	i	i	-2.3	i
Cc1ccc(Cn2nnc3c(=O)n(CC(=O)N4CCCCC4)cnc32)cc1	0.4	x	x	-0.5	x
O=C(CCCn1c(=S)[nH]c2cc3c(cc2c1=O)OCO3)N1CCN(c2ncccn2)CC1	1.6	x	x	4.0	x
O=S(=O)(NCCc1ccccc1F)c1cccc(S(=O)(=O)N2CCOCC2)c1	-0.9	i	i	3.7	i
O=c1oc(-c2cccc(S(=O)(=O)N3CCOCC3)c2)nc2ccccc12	-3.3	x	x	7.2	x
COc1cccc(C2C(C(=O)Nc3cccnc3)=C(C)Nc3nnnn32)c1OC (stereo unspecified)	-0.4	x	x	-0.1	x
CC(C)Nc1ncnc2c1cnn2-c1ccccc1	1.7	i	i	-4.8	i
O=C1CC(c2ccco2)=Nc2ccccc2N1	5.5	i	i	-3.5	i
CCCc1ccccc1OCCNC(C)=O	6.3	i	i	-11.4	i
Cc1cccc(NC(=O)CCn2nc(C)cc2C)c1	13.6	x	x	-6.1	x
Cc1ccc(-c2cc(C(F)(F)F)n3ncc(C(=O)O)c3n2)cc1	-0.8	i	i	-4.4	i

3 structures already listed, arranged by heavy-atom count, falling.
SMILES	FPRL1 binder	VCAM-1 down	VCAM-1 down imaging	FPR ligand	VCAM-1 augmentation
COc1cccc(C2C(C(=O)Nc3cccnc3)=C(C)Nc3nnnn32)c1OC (stereo unspecified)	-0.4	x	x	-0.1	x
CC(C)Nc1ncnc2c1cnn2-c1ccccc1	1.7	i	i	-4.8	i
CCCc1ccccc1OCCNC(C)=O	6.3	i	i	-11.4	i
